# D2 ag = Beta-Arrestin HTS for Positive Allosteric Modulators of the Human D2 Dopamine Receptor: Agonists | D(2) dopamine receptor (Homo sapiens), P14416 | DiscoveRx PathHunter D2 beta-arrestin, luminescence, 90 min; 100% = 57 uM dopamine signal | activation, % (test concentration not listed) | actives 0.084% (n = 360,000); in the data active = activation above about 40%; inconclusive = about 15% to 40%; inactive = below about 15%; also: compound concentration not given in the record; the text of the record calls up to 30% inactive
# Target sequence (P14416 whole entry, looked up): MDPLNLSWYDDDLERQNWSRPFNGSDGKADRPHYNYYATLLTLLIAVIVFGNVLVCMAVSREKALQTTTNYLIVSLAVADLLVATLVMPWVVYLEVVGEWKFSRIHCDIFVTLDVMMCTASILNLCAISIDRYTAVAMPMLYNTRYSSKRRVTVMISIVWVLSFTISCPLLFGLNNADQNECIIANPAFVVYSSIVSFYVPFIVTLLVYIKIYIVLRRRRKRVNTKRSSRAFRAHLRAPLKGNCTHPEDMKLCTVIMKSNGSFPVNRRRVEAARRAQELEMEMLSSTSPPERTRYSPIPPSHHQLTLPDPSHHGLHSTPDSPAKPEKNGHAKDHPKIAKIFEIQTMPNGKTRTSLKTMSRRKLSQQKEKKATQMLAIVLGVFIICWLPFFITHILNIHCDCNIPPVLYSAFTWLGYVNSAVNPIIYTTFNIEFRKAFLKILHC
#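 Agonist mode: compounds alone added to overnight-plated D2 PathHunter cells for 90 min at 37 C, with 57 uM final dopamine (EC100) defining full response. Beta-arrestin recruitment detected by chemiluminescent reagent, read after 1 h at ambient temperature.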
# TRPML1 inh = qHTS for Inhibitors of the Human Mucolipin Transient Receptor Potential 1 (TRPML1) | Mucolipin-1 (Homo sapiens), Q9GZU1 | TRPML1-inducible cells, Ca2+ dye fluorescence, FDSS; stronger effect = lower value; inhibition of EC80 agonist-evoked calcium signal | activity change, negative = inhibition, % (concentration not given with the values) | actives 0.02% (n = 390,000) | AID 624415, 2012; in the data active means activity change below about -50%; inconclusive means about -30% to -50%; inactive means above about -30%;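 also: stimulus is agonist 54-4 at its EC80 concentration; % is scaled to controls: 0 for no effect and ±100 for the full control effect; compound concentration not given in the record; the text of the record puts the active cut at -80%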
# Target sequence (Q9GZU1 whole entry, looked up): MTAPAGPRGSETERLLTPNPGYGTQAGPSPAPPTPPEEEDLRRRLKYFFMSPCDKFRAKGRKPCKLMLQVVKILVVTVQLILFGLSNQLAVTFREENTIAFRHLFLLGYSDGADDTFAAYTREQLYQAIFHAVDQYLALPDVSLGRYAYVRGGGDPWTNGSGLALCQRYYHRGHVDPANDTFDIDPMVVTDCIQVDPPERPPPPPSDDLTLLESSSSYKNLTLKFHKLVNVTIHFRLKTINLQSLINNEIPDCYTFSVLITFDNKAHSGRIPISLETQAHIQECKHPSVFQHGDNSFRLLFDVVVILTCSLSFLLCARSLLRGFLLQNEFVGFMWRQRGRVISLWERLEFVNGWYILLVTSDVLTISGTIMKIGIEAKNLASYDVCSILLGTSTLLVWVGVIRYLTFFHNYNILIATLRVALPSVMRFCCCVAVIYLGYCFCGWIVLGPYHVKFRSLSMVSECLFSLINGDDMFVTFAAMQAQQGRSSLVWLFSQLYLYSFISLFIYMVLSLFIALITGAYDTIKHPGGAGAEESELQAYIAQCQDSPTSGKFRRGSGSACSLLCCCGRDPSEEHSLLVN
#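 Tet-induced TRPML1-DL cells loaded with Ca8 no-wash calcium dye were read kinetically on FDSS. Compound addition was followed by EC80 agonist 54-4 (4 uM final); inhibition was read over 110 s.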
# TRPML1 ag = qHTS for Agonists of the Human Mucolipin Transient Receptor Potential 1 (TRPML1); Mucolipin-1 (Homo sapiens), Q9GZU1; AID 624414, 2012; activation, % (concentration not given with the values); TRPML1-expressing cells, Ca2+ dye fluorescence, FDSS; host cell line not named in the record; reference of the full effect not given here; actives 0.12% (n = 410,000); in the data active = activation above about 50%; inconclusive = about 30% to 50%; inactive = below about 30%; also: 0% is about no effect; the text of the record puts the active cut at 80%
#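 TRPML1-DL cells, Tet-induced overnight (~16 h, 37 degrees C), loaded 45-90 min at room temperature with Ca8 no-wash calcium dye plus quencher. FDSS fluorescence: 10 s baseline, compound pin-transfer, 110 s agonist read, then EC80 54-4 (4uM final) and 110 s antagonist read.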
# D2 PAM = Beta-Arrestin HTS for Positive Allosteric Modulators of the Human D2 Dopamine Receptor: Potentiators. D(2) dopamine receptor (Homo sapiens), P14416. DiscoveRx D2 beta-arrestin cells, luminescence, 90 min; 100% = 57 uM dopamine signal. potentiation, % (test concentration not listed). actives 0.23% (n = 360,000). AID 624464, 2012; active = potentiation of 50% or more; inconclusive = 30% to 50%; inactive = 30% or less;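 also: compound concentration not given in the record; tested on top of an EC20 dose of dopamine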
#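 PathHunter beta-arrestin assay in DiscoveRx D2 cells. Compounds were added with an EC20 of dopamine (50 nM final) for 90 min at 37 deg C. Luminescence was read 1 h after detection reagent, with 57 uM dopamine as the EC100 control.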
# PINK1 modulator = A Quantitative High throughput Screen to Identify Chemical Modulators of PINK1 Expression | PINK1 immunofluorescence, high-content cytometry, 24 h | Potency, µM (series often up to 76.6 µM), without a hit: top-dose activation (PINK1 increase), most hits filed as activators | actives 0.2% (n = 410,000) | AID 624263, 2012; active = well fitted activation curve with a large enough effect; inconclusive = small, poorly fitted or top-dose-only effect; inactive = flat fitted curve, though single readings scatter; cell line not stated here;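 also: potency is read from the fitted curve at half-maximal effect; % of control where 0% means no effect; nearly all actives have a fitted effect of over 65% in size; a mitochondrial uncoupler was the plate control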
#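 Readout is PINK1 immunofluorescence, quantified alongside mitochondrial, cell and nuclear markers by laser-scanning microplate cytometry. Cells from a stable line were exposed to compound titrations (5 concentrations) for 24 hours, with CCCP controls.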
# Six1-Eya2 inh = qHTS Assay for Inhibitors of the Six1/Eya2 Interaction. Homeobox protein SIX1 (Homo sapiens) + Protein phosphatase EYA2 (Homo sapiens), …. actives 0.56% (n = 360,000). activity change, % (test concentration not listed). AlphaScreen GST-Six1/His-Eya2 binding, biochemical; stronger effect = lower value; control for the full effect not named in the record; in the data active = activity change below about -65%; inconclusive = about -30% to -65%; inactive = above about -30%; also: % is scaled to controls: 0 for no effect and ±100 for the full control effect; compound concentration not given in the record
#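 Homogeneous AlphaScreen proximity assay pairing GST-Six1 with His-tagged Eya2 (added as 5X mix: 250 nM and 500 nM) in 50 mM Tris pH 8.0, 300 mM NaCl, 1 mM TCEP. Glutathione donor and nickel acceptor beads; 1 h, 37 °C, dark.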
# Active calls of the source: *; ? = inconclusive; · = not tested or not shown; & = joins results of further samples; [ ] = another dose, or the depositor's remark.
# Values run as follows: D2 ag	TRPML1 inh	TRPML1 ag	D2 PAM	PINK1 modulator	Six1-Eya2 inh
> O=C(NCc1cccc(C(F)(F)F)c1)c1ccc2nc([C@@H]3O[C@H](CO)[C@@H](O)[C@H]3O)[nH]c2c1
→ -4.4	·	-0.4	-6	0.2%	5
> CCN(C(=O)c1ccc(NC(=O)C2CCCCC2C(=O)O)cc1)c1ccccc1 (stereo unspecified)
→ -1.8	-2	-1.0	1	-0.2%	2
> CC1CN=C(c2ccccc2)O1 (stereo unspecified)
→ -1.0	3	2.4	-11	-0.5%	3
> CSc1cccc(NC(=O)CNC(=O)c2ccc3c(c2)OCO3)c1
→ -2.4	29	-0.4	-8	0.2%	0
> Cc1cccc(C)c1OC(=O)Cc1ccccc1[N+](=O)[O-]
→ 1.7	12	0.0	-1	2.8%	0
> Cc1cccc(N2CCN(C(=O)c3cc(S(=O)(=O)N4CCC(C)CC4)cn3C)CC2)c1C
→ ·	-2	0.4	·	1.4%	·
> CC1CC1c1ccc(/C=C(\C#N)C(=O)Nc2cc(Cl)ccc2Cl)o1 (stereo unspecified)
→ -1.1	8	1.3	-10	?	8
> Cc1cc2c(nn1)CCc1c-2no[n+]1[O-]
→ -3.9	0	-0.3	-5	-0.6%	0
> Cc1cc(C(=O)NNC(=O)CN2C(=O)NC3(CCCCC3)C2=O)c(C)o1
→ -0.6	2	-0.8	1	1.7%	-1
> O=C(Nc1ccncc1Cl)c1ccncc1
→ -2.9	-1	-0.5	-3	0.3%	1
> COc1ccc(C(=O)N/N=C/c2c(C)nn(-c3ccccc3)c2OC)cc1
→ -4.3	-2	-0.6	-10	3.9%	-30
> CCC(C)OC1OC(CO)C(O)C(O)C1NC(C)=O (stereo unspecified)
→ -1.1	-18	0.3	11	-1.0%	4
> O=C(CC(=O)N/N=C/c1c(Cl)cccc1Cl)NCc1cccnc1
→ 2.4	4	0.0	-2	-0.8%	1
> CCOc1ccc(N2CC(C(=O)Nc3ccncc3)CC2=O)cc1 (stereo unspecified)
→ 4.8	9	-0.5	-3	-1.8%	1
> S=C(NN=Cc1ccccn1)N(Cc1ccccn1)Cc1ccccn1
→ 9.8	9	1.7	24	19%	-91*
> O=C(NCc1ccccc1)c1cnc(-c2ccccn2)nc1C(F)(F)F
→ -3.1	9	2.0	-10	-1.9%	-1
> CCc1nc2scc(-c3ccccc3)c2c(=O)n1N
→ -3.7	-5	0.5	-15	0.0%	-7
> CCS(=O)(=O)N1CCC(N2CCN(c3ccccc3)CC2)CC1
→ 46*	-8	-0.5	?	-0.4%	1
> Cc1ccc(C)c(CNC(=O)c2cnc3sc(N4CCCC4)nn3c2=O)c1
→ ·	11	0.2	·	-0.9%	·
> COC(=O)CN(c1cccc(C(C)=O)c1)S(C)(=O)=O
→ -1.2	-15	1.3	0	1.8%[38.3 µM]	6
> COc1cc(CN2CCN(c3cc(C)ccc3C)CC2)cc([N+](=O)[O-])c1O
→ -3.9	18	0.4	-19	5.5%[38.3 µM]	-9
> CCCS(=O)(=O)N1CCCC(C(=O)NCCCOC(C)C)C1 (stereo unspecified)
→ -4.3	-4	-0.7	-19	-1.4%	-1
> CS(=O)(=O)c1ccc(NC(=O)CN2C(=O)C3CCCCC3C2=O)cc1 (stereo unspecified)
→ -4.7	-10	-0.2	-12	0.9%	-5
> O=C(N[C@@H](Cc1ccccc1)C(=O)O)c1cccnc1
→ -2.3	-11	0.5	-3	1.1%	-2
> O=C(C=Cc1ccccc1)c1ccc([N+](=O)[O-])cc1
→ 4.2	-8	-1.2	4	1.8%	-3
> CCOc1ccc(C2=Nn3c(nnc3-c3ccc(OC)cc3)SC2)cc1
→ 0.1	15	1.2	-17	2.1%	-14
> COc1cccc(Nc2cc(N3CCOCC3)c3nonc3c2[N+](=O)[O-])c1
→ -1.6	-13	0.2	-2	?	-2
> CC1(C)C2CCC1(CS(=O)(=O)N1CCN(c3ccc(F)cc3)CC1)C(=O)C2 (stereo unspecified)
→ -2.1	10	0.1	-3	0.8%	0
> O=S(=O)(Nc1nc2n(n1)C(c1ccccc1)C=C(c1ccc(Cl)cc1)N2)c1ccccc1 (stereo unspecified)
→ ·	-6	7.4	·	0.3%	·
> Cc1cccnc1NC(=O)CSc1nnc(COc2ccc(C(C)C)cc2)n1C
→ -0.4	-15	0.5	-14	3.6%	4
> Nc1nc2ccc(C(=O)NC3CCCCC3)cc2s1
→ -1.4	13	-1.2	-29	1.4%	-10
> O=C(NC(=S)Nc1ccccc1[N+](=O)[O-])c1ccccc1Cl
→ -8.8	-22	1.7	-10	-0.1%	-13
> C/C(Cc1ccccc1)=N\NC(=O)CCCCCC(=O)N/N=C(\C)Cc1ccccc1
→ -1.3	1	-0.2	-1	-0.6%	0
> CN1C(=O)c2oc3ccccc3c(=O)c2C1c1ccccn1 (stereo unspecified)
→ 0.5	44	-0.9	-2	-0.5%	-11
> C=CCNc1nc(-c2ccc(Cl)cc2)cs1
→ -0.7	4	-0.3	-14	1.9%	-3
> CNc1nc(N)c(C(=O)C(C)(C)C)s1
→ -1.1	-7	-0.2	-8	·	-2
> O=C(CCCOc1ccccc1)Nc1nc2ccccc2[nH]1
→ -1.9	-4	-0.1	-1	1.4%	-2
> COc1ccccc1NC(=O)CSC1=NCCN1
→ -7.8	4	-0.4	-21	0.9%	1
> N#Cc1nc(COc2ccc(F)cc2)oc1N1CCC(Cc2ccccc2)CC1
→ -0.1	0	-0.4	0	-6.3%[38.3 µM]	-22
> N#Cc1cccc(CN2CCC(=O)N([C@H](CO)c3ccccc3)CC2)c1
→ 0.8	-6	0.0&-0.3	-1	0.1%	10
> COCc1cc(C)nc(OC)c1C(N)=O
→ -1.6	-6	0.6	1	1.2%	0
> O=C(NC(NC(=S)Nc1ccccc1C(=O)O)C(Cl)(Cl)Cl)c1ccccc1 (stereo unspecified)
→ 1.0	-8	1.3	-10	1.8%	-10
> COc1ccc(N(CC(=O)NC(C)(C)C)C(=O)CCC(=O)Nc2nccs2)cc1
→ -4.7	-12	0.1	-6	-0.2%	1
> CSc1ccc(CN(C)CC(=O)NCc2ccccc2)cc1
→ 2.0	-1	-0.3	-4	-0.7%	4
> COc1ccc(C(=O)Nc2cc(C(=O)O)cc(C(=O)O)c2)cc1Cl
→ 2.0	15	0.1	-11	0.9%	-4
> CCn1c(=O)c(=O)[nH]c2cc(C(=O)N3CCN(Cc4ccc5c(c4)OCO5)CC3)ccc21
→ -3.9	25	1.4	-1	2.4%	0
> CC(=O)N1CCc2cc(S(=O)(=O)N3CCc4ccccc43)ccc21
→ -1.7	-5	-0.4	-29	10%	-4
> COc1ccc(CN2CCN(c3cccc(C)c3C)CC2)cc1OC
→ -0.8	11	-0.4	-11	·	7
> CC1CCCC(C)N1C(=O)/C=C/c1ccc(S(=O)(=O)N2CCOCC2)cc1 (stereo unspecified)
→ 1.6	-6	0.7	-3	1.0%	-2
> O=c1c2ccccc2nc2c3ccccc3c(NCCO)nn12
→ -0.4	-3	-0.9	1	1.4%	-69*
> CCn1c(COc2ccc(C)cc2)nnc1SCc1nc2ccccc2[nH]1
→ -3.9	-10	0.3	-5	-3.5%[38.3 µM]	-1
> Cn1c(=O)n(C)c2cc(NC(=O)c3ccc(F)cc3)ccc21
→ -3.8	5	0.5	-3	-0.1%	-19
> CCCN(CCC)C(=O)Cn1c(=O)n(CCCC(=O)NCc2ccco2)c(=O)c2sccc21
→ -5.3	0	-0.8	-5	-1.0%	2
> Cc1sc(-n2c(C)cc(C=O)c2C)c(C(=O)O)c1C
→ -1.3	-3	0.0	-7	27%[38.3 µM]	-7
> CC1(C)C=Cc2c(ccc3c2OC[C@H](c2ccc(O)cc2O)C3)O1
→ 1.7	-14	-0.8	-8	-0.7%	-13
> Cc1cc(C)c(S(=O)(=O)N2CCOC2CNC(=O)C(=O)NCCCn2ccnc2)c(C)c1 (stereo unspecified)
→ -0.7	6	0.3	-2	1.7%	-70*
> CC1OC(OC2C(CO)OC(OC3C(CO)OC(O)C(O)C3O)C(O)C2O)C(O)C(O)C1N[C@@H]1C=C(CO)[C@@H](O)C(O)[C@H]1O (stereo partly specified)
→ -2.8	20	-0.2	-1	0.3%	5
> Cc1cccc(C)c1Nc1nnc(SCC(=O)NC2CCS(=O)(=O)C2)s1 (stereo unspecified)
→ 3.3	18	0.2	6	3.6%	1
> Cc1c(NC(=O)Nc2ccccc2C(F)(F)F)c(=O)n(-c2ccccc2)n1C
→ 3.4	9&-12	0.2&-0.4	-11	3.9%&1.5%	4
> Cc1cc(NC(=O)CSc2nc(N)c(NC(=O)c3ccco3)c(=O)[nH]2)no1
→ 3.3	-12	0.3	-5	2.7%	3

# (continued)
# Values run as follows: D2 ag	TRPML1 inh	TRPML1 ag	D2 PAM	PINK1 modulator	Six1-Eya2 inh
> CCOC(=O)C1=C(COc2ccccc2)NC(=O)NC1c1ccc2ccccc2c1 (stereo unspecified)
→ -0.9	3	-0.4	-1	8.4%	-2
> COc1ccc(N(CC(=O)Nc2cccc(Cl)c2C)S(=O)(=O)c2c(C)nn(C)c2C)cc1
→ ·	15	-0.7	·	0.6%	·
> CCN(CC)C(=O)Nc1ccc2c(c1)N(Cc1ccccc1)C(=O)c1ccccc1S2
→ ·	0	1.2	·	1.2%	·
> COc1ccc(-c2c(C#N)c(SCC(=O)Nc3ccccc3)nc3c2CCCC3)cc1
→ 1.5	7	-0.2	1	-2.2%	0
> Cc1nc(-c2ccc(F)cc2)c(CC(=O)Nc2ccc(C)c(S(=O)(=O)N3CCOCC3)c2)s1
→ -1.6	-2	1.1	5	2.5%	4
> CC1(C(=O)NC2CCCC2)CCC(=O)N1Cc1ccc2c(c1)OCO2 (stereo unspecified)
→ 0.2	7	0.8	-1	-5.1%[38.3 µM]	3
> CCCOc1ccc(N2C(=O)CC(N(CCc3ccc(OC)c(OC)c3)C(=S)Nc3ccccc3)C2=O)cc1 (stereo unspecified)
→ -0.4	-17	-0.2	-13	?	-6

# Among those listed so far, four contain a furan ring, fused or not:
# Values run as follows: D2 ag	TRPML1 inh	TRPML1 ag	D2 PAM	PINK1 modulator	Six1-Eya2 inh
> CC1CC1c1ccc(/C=C(\C#N)C(=O)Nc2cc(Cl)ccc2Cl)o1 (stereo unspecified)
→ -1.1	8	1.3	-10	?	8
> Cc1cc(C(=O)NNC(=O)CN2C(=O)NC3(CCCCC3)C2=O)c(C)o1
→ -0.6	2	-0.8	1	1.7%	-1
> CCCN(CCC)C(=O)Cn1c(=O)n(CCCC(=O)NCc2ccco2)c(=O)c2sccc21
→ -5.3	0	-0.8	-5	-1.0%	2
> Cc1cc(NC(=O)CSc2nc(N)c(NC(=O)c3ccco3)c(=O)[nH]2)no1
→ 3.3	-12	0.3	-5	2.7%	3
